GIRK2 activ: activators of human GIRK2 potassium channels. HEK293-GIRK2 thallium flux, Thallos fluorescence. G protein-activated inward rectifier potassium channel 2 (Homo sapiens), P48051. 63,000 tested, 0.05% active. AID 1259325, 2017. calls only for hits at 25 µM;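 active = among the strongest 0.2% of first-round signals and kept after retests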;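 note: first round at about 10 µM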
Target sequence (P48051 whole entry, looked up): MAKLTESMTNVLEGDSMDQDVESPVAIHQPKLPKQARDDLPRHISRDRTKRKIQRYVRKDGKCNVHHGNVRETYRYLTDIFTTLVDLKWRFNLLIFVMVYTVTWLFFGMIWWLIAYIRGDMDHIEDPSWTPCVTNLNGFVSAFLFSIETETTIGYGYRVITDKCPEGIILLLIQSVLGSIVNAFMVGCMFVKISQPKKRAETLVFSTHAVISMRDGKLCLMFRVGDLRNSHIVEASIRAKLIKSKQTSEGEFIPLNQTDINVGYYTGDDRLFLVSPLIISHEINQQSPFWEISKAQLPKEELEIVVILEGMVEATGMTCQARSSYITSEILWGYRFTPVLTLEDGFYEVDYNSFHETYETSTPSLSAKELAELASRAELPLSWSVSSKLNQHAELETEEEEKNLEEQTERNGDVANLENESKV
Calls only; i = inactive. The list is partial; rates above refer to the full screens.

The opening 6 entries, to show the layout:
| Compound | GIRK2 activ |
| --- | --- |
| COc1ccc(OC)c(-c2cc(C(=O)N3CCC(c4ccccc4)C3)n(C)n2)c1 (centres undefined) | i |
| CCCC(=O)N(CCn1cccn1)c1nc2ccccc2s1 | i |
| Cc1cc(=O)n2[nH]cc(C(=O)NCc3cccc(C(F)(F)F)c3)c2n1 | i |
| Cc1ccc(C)c(S(=O)(=O)NCc2ccc(C(=O)Nc3ccc(Br)cc3F)cc2)c1 | i |
| CNC(=O)c1cc(-n2cccn2)ccn1 | i |
| COc1ccc2c(CCNC(=O)CSc3nnnn3-c3ccccc3F)c[nH]c2c1 | i |

All compounds of this part, repeating the preview:
| Compound | GIRK2 activ |
| --- | --- |
| COc1ccc(OC)c(-c2cc(C(=O)N3CCC(c4ccccc4)C3)n(C)n2)c1 (centres undefined) | i |
| CCCC(=O)N(CCn1cccn1)c1nc2ccccc2s1 | i |
| Cc1cc(=O)n2[nH]cc(C(=O)NCc3cccc(C(F)(F)F)c3)c2n1 | i |
| Cc1ccc(C)c(S(=O)(=O)NCc2ccc(C(=O)Nc3ccc(Br)cc3F)cc2)c1 | i |
| CNC(=O)c1cc(-n2cccn2)ccn1 | i |
| COc1ccc2c(CCNC(=O)CSc3nnnn3-c3ccccc3F)c[nH]c2c1 | i |
| COCCN1CCC(CNC(=O)c2ccccc2)CC1 | i |
| COc1ccc(-c2c(NC(=O)c3cccc([N+](=O)[O-])c3)oc3ccccc3c2=O)cc1OC | i |
| COC(=O)c1ccc(S(=O)(=O)NCC#CCN2CCCC2)cc1 | i |
| Cc1cc(C)c(C)c(S(=O)(=O)NCc2ccc(C(=O)N3CCOCC3)cc2)c1C | i |
| Cc1ccc(-n2nnc3c(N4CCN(C(=O)C(C)Oc5ccccc5)CC4)ncnc32)cc1 (centres undefined) | i |
| CCc1ccc(-n2nc(-c3nc(-c4ccc(OC)c(OC)c4)no3)c3ccccc3c2=O)cc1 | i |
| CCCc1nnsc1C(=O)Nc1cccc(-c2cnc3n2CCC3)c1 | i |
| COc1c2c(cc3oc(CO[C@@H]4O[C@H](CO)[C@@H](O)[C@H](O)[C@H]4O)cc(=O)c13)OC(C(C)(C)O)C2 (some centres undefined) | i |
| COc1ccc(Cl)cc1NC(=O)Nc1cc(N2CCCC2)ncn1 | i |

More results:
| Compound | GIRK2 activ |
| --- | --- |
| CSc1cccc2sc(N(CC3CCCO3)C(=O)c3cccc(F)c3)nc12 (centres undefined) | i |
| CC(=O)c1ccc2c(c1)C1C=CCC1[C@H](c1cc3c(cc1Br)OCO3)N2 (some centres undefined) | i |
| Cc1cn2c3c(=O)n(Cc4ccc(Cl)c(Cl)c4)c(=O)n(C)c3nc2n1CCOCCO | i |
| Cc1ccc(NC(=O)c2n[nH]nc2Nc2ccc(F)cc2)c(Br)c1 | i |
| CC1CCCN(c2ccc(-c3noc(CN4CCN(CC(=O)NC(C)C)CC4)n3)cn2)C1 (centres undefined) | i |
| O=S(=O)(c1ccc(F)c(Cl)c1)N1CCCC(c2nnc(-c3ccccc3F)s2)C1 (centres undefined) | i |
| COc1ccc(S(=O)(=O)N2CCCOC2CNC(=O)C(=O)NCC(C)C)cc1OC (centres undefined) | i |
| COc1ccc(CCn2c(NCc3ccco3)nc3c2c(=O)[nH]c(=O)n3C)cc1 | i |
| CCCCCCCC(=O)CC[C@@H]1[C@@H](C/C=C\CCCC(=O)OC(C)C)[C@@H](O)C[C@H]1O | i |
| Cc1noc(CNS(=O)(=O)c2ccc(F)c(Cl)c2)n1 | i |
| Cc1cc(NC(=O)NCc2cccs2)sn1 | i |
| O=C(NCc1ccccn1)c1cccc(NS(=O)(=O)c2ccccc2F)c1 | i |
| CC1CN(CC(=O)Nc2ncc(Cc3ccccc3Cl)s2)CC(C)O1 (centres undefined) | i |
| CCOc1ccc2cccc(NC(=O)c3ccccc3C(F)(F)F)c2n1 | i |
| Cc1nc(SCc2cccc(Cl)c2)[nH]c(=O)c1CC(=O)N1CCc2ccccc2C1 | i |

Remaining list, next part.
| Compound | GIRK2 activ |
| --- | --- |
| COc1ccc(-n2nc3c(=O)[nH]nc(C)c3c2C)cc1 | i |
| Cc1ccc(-n2nc(C)c3c(Cl)c(C(=O)NCCc4ccc(S(N)(=O)=O)cc4)cnc32)cc1 | i |
| CC(C(=O)Nc1ccc2c(c1)OCCO2)n1nc(-c2cccs2)ccc1=O (centres undefined) | i |
| CN1CCc2c(sc(NC(=O)COc3ccccc3)c2-c2nc3ccccc3s2)C1 | i |
| Nc1ccccc1C(=O)NNC1CC(=O)N(Cc2ccccc2)C1=O (centres undefined) | i |
| COc1cc(CN2CCN(CC(O)C3CC3)CC2)cc(OC)c1 (centres undefined) | i |
| CCOC(=O)c1ccc(NC(=O)CSc2nccnc2N2CCN(c3ccccc3)CC2)cc1 | i |
| COCCn1c(-c2nc(C(=O)N3CCN(S(C)(=O)=O)CC3)cs2)cc2ccccc21 | i |
| Cn1c(SCC(=O)Nc2ncn[nH]2)nc2ccsc2c1=O | i |
| COc1cc(NC(=O)N2CCC(c3nnc(C4CC4)s3)CC2)cc(OC)c1OC | i |
| CCC(C)NC(=O)c1ccc2c(=O)n(CCC(C)C)c3nn(CC(N)=O)c(=O)n3c2c1 (centres undefined) | i |
| COCCN1CCC(NC(=O)C2CCC2)CC1 | i |
| CN(C)c1ncc(NC(=O)CNC(=O)c2ccccc2)cn1 | i |
| CCN1CCc2nc(-c3ccc(F)cc3)n(CC(=O)NCc3ccc(C)cc3)c(=O)c2C1 | i |
| CS(=O)(=O)NCC1(O)CCOc2ccccc21 (centres undefined) | i |

(further entries)
| Compound | GIRK2 activ |
| --- | --- |
| COc1ccc(CNC(=O)c2cnn3c(-c4ccc(C)c(C)c4)ccnc23)cc1 | i |
| CCCCC1CCC(C(=O)NCCc2nc(C)cc(C(F)(F)F)n2)CC1 (centres undefined) | i |
| C#CCOCC1CCCN(C(=O)c2cnccn2)C1 (centres undefined) | i |
| COc1ccc(Cl)cc1NC(=O)c1csc(-c2cnccn2)n1 | i |
| O=C(NCCC1=CCCCC1)C1CCN(c2nc3ccsc3c(=O)n2Cc2ccccc2)CC1 | i |
| O=C(c1cccc(Cl)c1)N1CCN(CCn2cccn2)CC1 | i |
| CCN(CC)S(=O)(=O)c1ccc(-c2nc(C#N)c(N3CCCCCC3)o2)cc1 | i |
| COc1ccc(OCC(O)Cn2c(N3CCN(C)CC3)nc3c2c(=O)n(C)c(=O)n3C)cc1 (centres undefined) | i |
| CCOc1ccc(C(C)(C)C)cc1S(=O)(=O)n1ccnc1 | i |
| Cc1cc(NC(=O)c2ccc(F)cc2F)n(-c2nc3c(cnn3-c3ccc(F)cc3)c(=O)[nH]2)n1 | i |
| Cn1cnc(S(=O)(=O)NCCN2CCN(c3ccccc3)CC2)c1 | i |
| CCN1CCc2nc(-c3ccccc3)n(CC(=O)N(C)c3ccccc3)c(=O)c2C1 | i |
| Cc1ccc(-c2csc3ncnc(N4CCN(C)CC4)c23)cc1C | i |
| Cc1c(C(=O)N2CCN(CC(O)c3cccs3)CC2)cnn1-c1ccccc1 (centres undefined) | i |
| CN(C(Cc1ccc(OS(=O)(=O)c2cccc3cnccc23)cc1)C(=O)N1CCN(c2ccccc2)CC1)S(=O)(=O)c1cccc2cnccc12 (centres undefined) | i |

Carrying on:
| Compound | GIRK2 activ |
| --- | --- |
| O=S(=O)(NCC(O)c1ccoc1)c1ccc2c(c1)OCCO2 (centres undefined) | i |
| O=C(Nc1ccc2cn[nH]c2c1)c1cc(-n2ccnc2)ccn1 | i |
| COC(=O)c1ccc(Cn2nc3c(-c4nc(-c5ccc(Cl)cc5)no4)cccn3c2=O)o1 | i |
| CCCCCCCC/C=C\CCCCCCCC(=O)NC(CO)C(=O)O (centres undefined) | i |
| COc1cccc(Cn2c(=O)c3sccc3n(Cc3ccc(OC)c(F)c3)c2=O)c1 | i |
| COc1ccc(S(=O)(=O)NCC2CCN(S(=O)(=O)c3cccnc3)CC2)cc1F | i |
| Cc1ccc(S(=O)(=O)c2nnn3c2nc(N2CCC(C(N)=O)CC2)c2ccccc23)cc1C | i |
| COCCn1c(C)nc2oc3ccc(Br)cc3c(=O)c2c1=O | i |
| Cc1csc(SCC2CCN(C(=O)c3c(-c4ccccc4Cl)noc3C)CC2)n1 | i |
| O=c1c2cc3c(cc2nc2sc(Nc4cccc([N+](=O)[O-])c4)nn12)OCO3 | i |
| Cc1ccc(S(=O)(=O)Nc2ccc3c(c2)N(S(=O)(=O)c2ccc(F)cc2)CCC3)cc1 | i |
| Cn1nc(C(=O)N2CCN(c3cc(-c4ccccc4)ncn3)CC2)ccc1=O | i |
| O=C1CC(c2nc3ccccc3n2Cc2ccc(Cl)cc2)CN1c1ccccc1 (centres undefined) | i |
| COCCc1noc(Cn2cccc(-c3nc(-c4ccsc4)no3)c2=O)n1 | i |
| O=C(Cn1nc2ccc(-c3ccc(Cl)cc3)nn2c1=O)NC1CCCC1 | i |

Next part.
Compound	GIRK2 activ
CCOc1ccc(-c2noc(CN3N=NC4C(=O)N(c5ccc(C)c(F)c5)C(=O)C43)n2)cc1OC (centres undefined)	i
COc1ccc(C2C(C(=O)Nc3ccccc3OC)C(C)Nc3ncnn32)c(OC)c1 (centres undefined)	i
CCOC(=O)c1ccccc1NC(=O)c1ccc2nnsc2c1	i
COc1ccc(C(=O)NCCNc2cc(Nc3ccccn3)nc(C)n2)cc1	i
CC(=O)Nc1ccc(NC(=O)CN(C)c2nc3c(Cl)cccc3s2)cc1	i
O=C(Cn1cnc2ccccc21)Nc1cnc(N2CCOCC2)nc1	i
O=C(CCc1csc(NC(=O)c2ccco2)n1)Nc1ccc(F)cc1	i
O=C(NCc1nn(C2CCCC2)c2c1CCCC2)c1cc(-c2ccco2)on1	i

(more compounds)
Compound	GIRK2 activ
CCOc1ccccc1NC(=O)CSc1nnc(Cc2ccc(OC)cc2)n1N	i
CCC(C)c1ccc(Cn2c(C(C)O)nc3ccccc32)cc1 (centres undefined)	i
O=C(COc1ccc(Cl)cc1Cl)Nc1cc(C2CC2)nn1-c1nc2c(c(=O)[nH]1)CCC2	i
NC(=O)CSc1ncc(-c2cccc([N+](=O)[O-])c2)n1-c1ccc(Cl)cc1	i
Cc1ccc2nc(C3CN(S(=O)(=O)c4ccc(OC(F)(F)F)cc4)C3)[nH]c2c1	i
O=C(Nc1nc2c(s1)CN(C(=O)C1CC=CCC1)CC2)c1ccoc1 (centres undefined)	i
CCOC(=O)C1CCc2sc(NC(=O)CCc3csc4nc(C5CC5)cn34)nc21 (centres undefined)	i
O=C(Nc1ccc2c(c1)OCO2)N1CC(c2nc(-c3ccccc3)no2)C1	i

Further entries follow:
Compound	GIRK2 activ
CC\C=C/C=C/C=C/C=C\CCCCCCCC(=O)O	i
O=C(Cc1cccc2ccccc12)N1CC(c2nc(-c3cccnc3)no2)C1	i
Cc1cccc(-n2ncc3c(=O)[nH]c(-n4nc(C)cc4NC(=O)c4cccc(C(F)(F)F)c4)nc32)c1	i
CCCOC(=O)CSc1nc2c(c(=O)n(C)c(=O)n2C)n1CC	i
Cc1c(O)ccc2c(CN3CCN(Cc4ccc5c(c4)OCO5)CC3)cc(=O)oc12	i
CSc1cccc(-n2ccc(=O)c(-c3nc(-c4cccc(C)c4)no3)n2)c1	i
Cc1nc(-c2ccccc2Cl)sc1CNC(=O)C1CC1	i
COc1cccc(NC(=O)c2ccc(S(=O)(=O)N(Cc3ccccc3)C(C)C)cc2)c1	i

Quoted at random: five entries already listed, in no set order.
Compound	GIRK2 activ
Cc1nc(-c2ccccc2Cl)sc1CNC(=O)C1CC1	i
Cc1c(O)ccc2c(CN3CCN(Cc4ccc5c(c4)OCO5)CC3)cc(=O)oc12	i
CCCOC(=O)CSc1nc2c(c(=O)n(C)c(=O)n2C)n1CC	i
CSc1cccc(-n2ccc(=O)c(-c3nc(-c4cccc(C)c4)no3)n2)c1	i
O=C(Cc1cccc2ccccc12)N1CC(c2nc(-c3cccnc3)no2)C1	i

More records.
Compound	GIRK2 activ
O=C(Nc1ccc(Cl)c(Cl)c1)N(Cc1ccsc1)C1CC1	i
COc1cccc2sc(N(CCCn3ccnc3)C(=O)/C=C/c3cccs3)nc12	i
COC(=O)N1CCN(CCNC(=O)c2ccc([N+](=O)[O-])o2)CC1	i
CC(=O)Nc1ccc(S(=O)(=O)NCCn2nc(C(F)(F)F)n(C)c2=O)cc1	i
COc1cccc(NC(=O)Cn2cc(S(=O)(=O)c3ccccc3)c(=O)c3cc(OC)ccc32)c1	i
O=S(=O)(Cc1ccccc1)N1CCN(c2cc(N3CCCC3)ncn2)CC1	i
COc1ccc(Cn2cc(C(=O)c3ccc(OC)cc3)c(=O)c3cc4c(cc32)OCO4)cc1	i
O=C(/C=C/c1ccccc1)NCCn1ncc2c(NCc3ccco3)ncnc21	i

(listing goes on)
Compound	GIRK2 activ
CN1C(=O)CCc2cc(NC(=O)c3ccc4c(c3)OCO4)ccc21	i
Cc1cc(C(=O)Nc2nc(C(=O)Nc3ccc(S(=O)(=O)Nc4nccs4)cc3)co2)no1	i
CSc1cccc2sc(NC(=O)Nc3ccccc3C(F)(F)F)nc12	i
Cc1cc(C)nc(NC(=O)c2ccc(S(=O)(=O)N3CCCCC3)cc2)n1	i
COc1ccc(-c2noc(CSc3nc4ccsc4c(=O)n3C)n2)c(OC)c1	i
COc1ccc(-c2noc(-c3ccc(SCC(=O)N4CCCCCC4)nc3)n2)cc1	i
COc1ccc(NC(=O)CCn2cnc3c([nH]c4ccc(C)cc43)c2=O)c(OC)c1	i
COc1ccc(Nc2c(C(=O)N3CCCC3)cnc3nc(C)ccc23)cc1OC	i

Continuation:
Compound	GIRK2 activ
COc1ccccc1OCC#CCNS(=O)(=O)C1CC1	i
CCN(CC)C(=O)Cn1cnc2c(cnn2-c2ccc(C)cc2C)c1=O	i
CC(C)C(=O)Nc1ccc(Cl)cc1-c1nc2ccccc2[nH]c1=O	i
Cc1noc(C2CCN(C(=O)/C=C/c3ccc4c(c3)OCO4)CC2)n1	i
CCOC(=O)N1CCN(CCn2c(C)cn3c4c(=O)n(C)c(=O)n(C)c4nc23)CC1	i
COC(=O)c1sccc1S(=O)(=O)NCC(C)(O)c1ccco1 (centres undefined)	i
Cc1ncn(CC(=O)Nc2cccc(C(C)C)c2)c(=O)c1C	i
COc1ccc(C(=S)N2CCN(C(=S)c3cc(OC)c(OC)c(OC)c3)CC2)cc1	i
O=C(NC12CC3CC(CC(C3)C1)C2)N(Cc1ccoc1)Cc1cccs1	i
CS(=O)(=O)NCC1CCN(Cc2ccco2)CC1	i
